Assay outcomes (PubChem)
PABP polyA inh: blocks human PABP binding to poly(A) RNA. inhibition, % at 35 µM. actives 1% (n = 290,000). fluorescence polarization. P11940;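 active = 50% or more with normal probe brightness, or confirmed in later tests; inconclusive = above 50% with abnormal brightness, or retests that disagree; inactive = below 50% or failed in later tests; about a fifth of its hits are not listed in these tables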;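 note: calls also rest on retests at 20 µM and on dose response follow-up; controls were probe without protein and protein plus probe with vehicle; some compounds called inactive have numbers as strong as hits; many hits fall short of the cut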
Target sequence (P11940 whole entry, looked up): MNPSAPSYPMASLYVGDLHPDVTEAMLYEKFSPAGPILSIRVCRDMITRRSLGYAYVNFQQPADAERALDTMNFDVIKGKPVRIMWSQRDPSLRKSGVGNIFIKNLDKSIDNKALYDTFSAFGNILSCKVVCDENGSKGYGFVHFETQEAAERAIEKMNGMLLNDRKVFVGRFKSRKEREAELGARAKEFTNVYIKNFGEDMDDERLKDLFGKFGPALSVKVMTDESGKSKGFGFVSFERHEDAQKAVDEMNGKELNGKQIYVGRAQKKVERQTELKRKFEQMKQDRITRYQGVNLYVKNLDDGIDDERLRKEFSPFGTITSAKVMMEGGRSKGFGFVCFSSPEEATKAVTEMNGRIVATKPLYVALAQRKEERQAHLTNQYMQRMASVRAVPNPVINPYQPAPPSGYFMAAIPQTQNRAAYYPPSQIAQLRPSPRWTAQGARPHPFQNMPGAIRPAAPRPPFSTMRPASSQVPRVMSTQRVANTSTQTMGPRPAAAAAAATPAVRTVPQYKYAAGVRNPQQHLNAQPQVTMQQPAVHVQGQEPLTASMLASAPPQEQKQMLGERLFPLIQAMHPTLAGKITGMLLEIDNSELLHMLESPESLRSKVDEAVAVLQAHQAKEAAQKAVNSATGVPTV
MT1-MMP act inh: MT1-MMP (human) activation inhibition | actives 0.061% (n = 360,000) | AID 651647 | GFP/RFP ratio change, % at 20 µM | P50281 | HT1080 RFP-PRO-GFP cells, GFP/RFP ratio fluorescence, overnight; percent of plate control window, DMSO zero;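 active = GFP/RFP ratio change of at least 30% with cell ATP level not reduced by more than half and red fluorescence within 50% of control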; note: strong numbers were not always called active
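Assay system: RFP-PRO-GFP reporter HT1080 cells; read-out basis: GFP/RFP fluorescence ratio; benchmarks: DMSO wells and RFP-L50D-GFP cells; doses: 20 µM single dose, 1% DMSO; schedule: overnight cell settling, then overnight compound exposure, 37 °C, 5% CO2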
eIF4H inh: inhibitors of RNA binding by human eIF4H; inhibition, % at 35 µM; actives 0.94% (n = 290,000); eIF4H fluorescence polarization binding assay;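 active = 50% or more with normal probe brightness, or confirmed in later tests; inconclusive = above 50% with abnormal brightness, or retests that disagree; inactive = below 50% or failed in later tests; about a fifth of its hits are not listed in these tables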;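 note: calls also rest on retests at 20 µM and on dose response follow-up; 0% = protein and probe with vehicle and 100% = probe without protein; strong numbers were not always called active; many hits fall short of the cut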
CSC inhib: blocks cancer stem cells. cancer stem cell-like cells viability, luminescence. inhibition, % at 7.5 µM. actives 1.1% (n = 300,000). AID 2717;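 active = mean at 75% or more and at least half the replicates too; inconclusive = mean and replicates disagree; tested in HMLE shEcad cells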;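 note: 0% = median of negative and 100% = median of positive control wells; the first replicate is given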
Yeast UUG start: alters start codon recognition fidelity in yeast | S. cerevisiae UUG-firefly luciferase reporter, luminescence/redox ratio | activity score, % at 18.7 µM | actives 0.13% (n = 350,000) | AID 602363;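 active = replicate mean at a twofold rise or more, about +100% in these data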;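 note: firefly luciferase made from a UUG start codon reports start codon fidelity; reporter light over untreated wells divided by growth signal over untreated wells; some hits fall short of that in this replicate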
Rce1 inh: inhibitors of yeast Ras-converting enzyme; yeast membranes, quenched prenylated peptide cleavage fluorescence; calls only; actives 0.27% (n = 290,000);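 active = fall in fluorescence gain of 50% or more versus controls, with final raw signal at or below 3038400; inconclusive = same 50% fall but final raw signal above 3038400; inactive = fall in fluorescence gain under 50%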;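 note: plate controls were neutral control wells for no effect and wells lacking membranes for full effect; tested at 10 µM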
Target sequence (Q03530 whole entry, looked up): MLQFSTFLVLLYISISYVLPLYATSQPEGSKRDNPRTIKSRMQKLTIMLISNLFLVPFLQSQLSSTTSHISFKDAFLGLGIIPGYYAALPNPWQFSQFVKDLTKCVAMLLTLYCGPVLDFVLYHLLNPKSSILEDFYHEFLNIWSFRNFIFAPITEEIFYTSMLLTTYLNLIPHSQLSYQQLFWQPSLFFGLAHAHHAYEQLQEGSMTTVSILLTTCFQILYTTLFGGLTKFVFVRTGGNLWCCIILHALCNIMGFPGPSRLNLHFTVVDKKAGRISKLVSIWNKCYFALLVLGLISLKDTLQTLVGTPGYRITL
Env fusion inh: blocks HIV Env-driven cell-cell fusion; HeLa-JRFL Env/CEM21 cell fusion, luciferase; AID 651610; inhibition, % at 12.3 µM; actives 1.1% (n = 360,000);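 active = mean replicate inhibition score of at least 50 and every replicate individually at or above 50; inconclusive = only one of the two criteria met; inactive = mean below 50 and not all replicates reaching 50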;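 note: 0% = plate neutral controls and 100% = maraviroc near 300 nM; one replicate is shown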
eIF4H inh retest: recorded beside eIF4H inh, whose call it bears; inhibition, %; compound at 20 µM; confirmation average;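 mean of two retest wells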
PABP polyA inh retest: recorded beside PABP polyA inh, whose call it bears; inhibition, %; compound at 20 µM; confirmation repeats;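 mean of two retest wells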
MT1-MMP act inh RFP: also measured in MT1-MMP act inh; calls as there; RFP signal change, %; measured here: RFP expression control read;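 0 = vehicle wells; hits needed this value within 50% of zero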
* = called active by the depositor; i = inactive; ? = inconclusive; . = not tested or not shown.

SMILES	PABP polyA inh	MT1-MMP act inh	MT1-MMP act inh RFP	eIF4H inh	CSC inhib	Yeast UUG start	Rce1 inh	Env fusion inh	others
CC(C)c1nc(SCC(=O)NCC2CCCO2)c2c(=O)n(C)c(=O)n(C)c2n1 (configuration not stated)	-9	-4	0	-9	-10	-10	i	-100
Cc1cnc(NC(=O)C2CCCC2)s1	1	0	0	4	-15	.	.	.
CC(=O)Nc1ccc(N2CCN(C(C)=O)CC2)cc1	1	7	5	2	2	-14	i	.
O=C(O)c1cc2nc(-c3ccc(F)cc3)cc(C(F)(F)F)n2n1	15	-2	2	-9	1	-15	i	.
Cc1ccc(F)c(C2C3C=CCC(c4cccc(-c5ccc(N(C)C)cc5)c4)C3C(=O)N2Cc2ccccc2)c1 (configuration not stated)	2	3	-13	-9	21	-12	i	36
CCOc1ccc(-c2cccc(NS(=O)(=O)c3cc([N+](=O)[O-])ccc3Cl)c2)nn1	.	-2	-2	.	-1	-10	i	.
COC(=O)c1ccccc1NC(=O)CCc1ccccc1	1	2	2	-1	-8	2	i	-8
COC(=O)CCCC1=CC2=C(c3ccccc3)C(=O)C(C)(OC(=O)C3CCCC3)C(=O)C2=CN1Cc1ccc(OC)cc1 (configuration not stated)	11	-7	1	-2	10	-11	i	-45
COc1ccccc1C(CNC(=S)NCc1ccccc1)N1CCCC1 (configuration not stated)	4	2	1	-5	.	-10	i	16
O=C(Cn1nc(C(F)(F)F)cc1C1CC1)NCc1ccccc1F	12	5	5	-6	0	-11	i	-8
CC1(c2ccc([N+](=O)[O-])cc2)NC(=O)N(CC(=O)Nc2ccc(N3CCCCC3)cc2)C1=O (configuration not stated)	.	5	-5	.	-7	.	i	1
Clc1ccccc1/C=N/c1cc(-c2ccccc2)nn1-c1ccccc1	5	-1	0	-2	8	-10	i	-14
Cc1ccc(S(=O)(=O)n2ccc(-c3cccc(OCc4c(F)cccc4Cl)c3)n2)cc1	-11	-8	-5	5	6	-18	i	-48
Cc1ccc(C(O)c2ncc(-c3cccc(F)c3)[nH]2)cc1 (configuration not stated)	.	0	-1	.	.	-24	.	9
COc1ccc(NC(=O)COc2ccc(/C=C/c3cc[n+](C)cc3)cc2OC)cc1	37	0	-2	-1	-12	.	i	8
O=C(N/N=C/c1coc2ccccc2c1=O)c1cc(Br)ccc1O	6	-4	-1	1	-10	7	i	-38
CCN(CC)C(=O)c1cc(C(C)(C)C)c(O)c(C(C)(C)C)c1	?	7	-4	1	14	.	i	-7
COc1ccc(-c2cc(C(=O)OC3CCOC3=O)c3ccccc3n2)cc1OC (configuration not stated)	-9	1	1	-5	-11	-1	i	.
Brc1ccc(CN2CC[C@H]3C=CCc4cccc(c43)C2)cc1	.	-1	2	.	44	-22	.	16
Cc1noc(C)c1CSCC(=O)Nc1cccc(C(F)(F)F)c1	.	2	-1	.	7	-17	.	.
CC(OC(=O)c1cccc(-n2cnnn2)c1)C(=O)NC1(C#N)CCCCC1 (configuration not stated)	.	1	-4	.	-14	.	.	14
C/C(=N\Nc1ccccn1)c1ccc(C#N)cc1	-4	2	0	-4	17	.	i	-44
CCOC(=O)c1c(C)[nH]c(C(=O)OCC(=O)N2CCN(S(=O)(=O)c3ccc(C)cc3C)CC2)c1C	.	5	-2	.	5	-6	.	-1
COc1ccc(-c2nc3cc(C)c(Br)c(C)n3c2Cc2ccc(C)cc2)cc1OC	.	-2	-1	.	.	-11	.	-5
O=C(O)CCCCCCCCCC[n+]1ccccc1	6	1	4	13	-2	-1	i	-51

Carrying on:
SMILES	PABP polyA inh	MT1-MMP act inh	MT1-MMP act inh RFP	eIF4H inh	CSC inhib	Yeast UUG start	Rce1 inh	Env fusion inh	others
COc1ccc(CNC(=O)CCS(=O)(=O)c2ccc3c(c2)oc(=O)n3C)cc1	1	1	3	-13	-9	-3	i	3
Cc1cc(C)n(-c2nc(SCC(=O)Nc3nccs3)c3c4c(sc3n2)COC(C)(C)C4)n1	8	2	-5	-8	3	-19	i	.
Cc1nc(N)sc1-c1csc(Nc2ccccn2)n1	62	-8	10	32	.	-25	i	.	eIF4H inh retest=41;PABP polyA inh retest=38
Cc1cc(C)c2nc(Nc3nc(-c4ccccc4)cc(=O)[nH]3)nc(C)c2c1	-8	3	-3	-6	6	.	i	-12
CCOc1cc(S(=O)(=O)N2CCCC2)c(C)cc1C	1	-2	1	-1	-10	.	i	-1
O=S(=O)(Nc1cc(Cl)ccc1N1CCOCC1)c1ccccc1Cl	.	6	-2	.	.	-6	.	2
Cc1cccc(NC(=O)Cn2c(=O)oc3ccccc32)c1C	-6	-2	0	-1	-9	-13	i	-23
CCOC(=O)c1cc2ccc(OC(=O)c3ccco3)cc2oc1=O	4	7	5	-12	3	-7	i	-105
Cc1cc(Nc2ccc(Br)cc2F)n2nc(C)nc2n1	11	0	3	5	0	-8	i	-1
Cc1ccc(-n2c(C)cc(C(=O)CSc3nncs3)c2C)cc1	12	1	-20	-1	.	.	i	.
COc1ccc(C)cc1NC(=O)C(=O)N/N=C(\C)CC(=O)Nc1cccnc1	-2	2	4	5	-2	.	i	.
COc1cc(/C=N/NC(=O)c2ccncc2)c([N+](=O)[O-])cc1OC	-8	-3	-1	4	-19	.	i	5
CCOc1ccc(/C=C/C(=O)N(CC)CC(=O)NCc2cccs2)cc1OC	.	-1	5	.	2	-11	i	.
CC(C)=C1C2CCC1C1C(=O)N(NC(=O)c3ccco3)C(=O)C21 (configuration not stated)	45	0	3	-2	-6	-5	i	-16
COc1ccc(S(=O)(=O)N2CCCCCC2)cc1C(=O)N(C)CC(=O)Nc1cc(C)ccc1C	4	2	-1	1	32	-17	i	10
COc1cccc(CNC(=O)CCNS(=O)(=O)c2ccc3c(c2)CC(C)N3C(C)=O)c1 (configuration not stated)	4	-2	-1	10	-11	-18	i	2
CC(C)(C)NC(=O)CN(c1cccc([N+](=O)[O-])c1)S(=O)(=O)c1ccccc1	-3	-1	0	2	6	.	i	23
O=S(=O)(NCC(c1cccnc1)N1CCN(c2ccc(F)cc2)CC1)c1cccs1 (configuration not stated)	0	3	3	1	9	-14	i	3
COc1ccc(C(=O)NC2CC2)cc1OC1CCN(Cc2ccccc2F)CC1	-8	-1	3	-5	-17	-10	i	.
Cc1ccc(NC(=S)N(Cc2ccco2)C(C)c2cccs2)cc1 (configuration not stated)	-9	1	-4	-2	-3	-10	i	-11
O=C(OCc1cc(=O)n2c(n1)sc1ccccc12)c1ccc(O)cc1	5	0	3	79*	-1	.	i	-21	eIF4H inh retest=100*;PABP polyA inh retest=29
COC(=O)c1cc(C#N)c(N(C)Cc2ccccc2)nc1C	-9	-3	-7	9	1	-1	i	.
CCn1c(CSc2nc(C)cc(C)n2)nnc1SCC(=O)Nc1ccccc1	-10	4	7	-4	-9	-17	i	-23
Cc1ccc(NC(=O)NCCCc2ccccc2)cc1	-7	8	1	-2	-4	.	i	.
O=C(c1nc2ccccn2c1CNCCCn1nnc2ccccc21)N1CCOCC1	-13	-3	0	-19	-11	21	i	-16

(list continues)
SMILES	PABP polyA inh	MT1-MMP act inh	MT1-MMP act inh RFP	eIF4H inh	CSC inhib	Yeast UUG start	Rce1 inh	Env fusion inh	others
CCNC(=S)NNC(=O)c1cccn(Cc2ccc(Cl)cc2)c1=O	-6	4	2	-5	0	-24	i	-43
C/C(CC(=O)NC1CCCCCC1)=N\NC(=O)c1cnccn1	-4	0	0	3	1	.	i	7
COc1ccccc1OCCCn1c(=O)sc2ccccc21	-8	-2	0	0	4	-1	i	-320
O=C(NNS(=O)(=O)c1ccccc1)c1sccc1-n1cccc1	5	12	2	-1	-6	-12	i	3
Cc1cc(C(=O)NC2CCN(Cc3ccccc3)CC2)n[nH]1	9	2	3	1	-15	-10	i	4
O=C(O)C(C(=O)/C=C/c1ccco1)=C1SCCS1	49	-2	3	74	-7	-18	i	.	eIF4H inh retest=-4;PABP polyA inh retest=11
COc1ccc(C(=O)COC(=O)CN2C(=O)C3C4C=CC(C5CC45)C3C2=O)cc1 (configuration not stated)	2	5	6	7	-5	.	i	-8
COc1cc(OC)cc(C(=O)NC(=S)Nc2nc(-c3cc4ccccc4o3)cs2)c1	2	7	6	6	6	-10	i	0
COc1ccc(CCNC(=O)CSc2nc(=O)n3cccc(C)c3n2)cc1OC	.	1	1	.	-10	-7	i	1
O=C(CCS(=O)(=O)c1ccc(Br)s1)NC1CCCCCC1	-5	1	4	-13	-12	.	i	-18
COc1cc(C(=S)N2CCOCC2)ccc1OC(=O)c1ccccc1[N+](=O)[O-]	11	-2	0	-6	-18	-12	i	11
Cc1ccc(CNC(=O)CC(C)S(=O)(=O)c2ccc3c(c2)NC(=O)C(C)S3)cc1 (configuration not stated)	-1	-1	-12	-19	-2	-12	i	-4
CC(C)OC(=O)c1c(NC(=O)Cn2cnc([N+](=O)[O-])n2)sc2c1CCCC2	4	2	-5	-2	5	-16	i	-23
CC(=O)NC(c1cccs1)c1cc(F)c2cccnc2c1O (configuration not stated)	.	3	-2	.	51	0	.	.
COc1ccc(C(CC(=O)c2ccccc2)CC(=O)c2ccccc2)cc1OC	-2	-5	-2	-2	10	.	i	-4
COc1ccc(Cl)cc1N(CC(=O)NC(C)(C)C)S(=O)(=O)c1ccc(C)c([N+](=O)[O-])c1	-5	-7	-8	4	-6	.	i	31
Cc1cccc2c1cnn2C(=O)Nc1cc(F)ccc1F	2	-4	0	-9	-6	-13	i	-17
CCOC(=O)c1cnc(-c2ccccc2)[nH]c1=O	-10	1	10	5	-7	-7	i	-8
Cc1ccc(NC(=O)c2ccc(-n3cncn3)c([N+](=O)[O-])c2)cc1F	.	4	-2	.	-5	3	i	-19
O=C(O)C1CCN(C(=O)CCN2C(=O)S/C(=C\c3ccccc3)C2=O)CC1	-3	0	3	-9	-3	-21	i	-7
O=C(O)C(Cc1ccccc1)NC(=O)C(c1ccccc1)c1ccccc1 (configuration not stated)	9	-2	2	-2	-2	6	i	3
C/C(=N\NC(=O)CCCNc1ccccc1)c1ccncc1	-1	1	-5	-3	.	.	i	-2
c1ccc2c(c1)ccc1nnc(-c3ccc4c(c3)OCO4)n12	-5	1	-3	-4	-18	-26	i	.
O=C(c1ccc(F)cc1)c1cn(Cc2ccc(F)cc2)c2cc3c(cc2c1=O)OCCO3	3	3	8	1	-7	-14	i	-1
O=C(CN(C(=O)c1csnn1)c1ccc(Br)cc1)NC1CCCCC1	6	0	0	6	21	-10	i	-13

Next part:
SMILES	PABP polyA inh	MT1-MMP act inh	MT1-MMP act inh RFP	eIF4H inh	CSC inhib	Yeast UUG start	Rce1 inh	Env fusion inh	others
O=C(Nc1ccc(N=Nc2ccccc2)cc1)c1ccccc1Cl	7	8	-1	-1	31	.	i	-40
O=C(COC(=O)c1cc(S(=O)(=O)N2CCc3ccccc3C2)ccc1Cl)NCc1ccco1	6	-5	2	8	7	-5	i	16
Cc1c(/C=N/NC(=O)c2cccnc2)cc(C#N)n1C	-14	-2	1	-10	-1	.	i	0
CCOc1ccc(S(=O)(=O)Nc2cccc(C(=O)NCC(c3ccc(OC)cc3)N3CCOCC3)c2)cc1 (configuration not stated)	-10	2	-2	-9	-2	8	.	-19
Cc1ccc(NNC(=O)c2ccno2)c(C)c1	-7	2	1	-6	37	3	i	4
Cc1nc(NC(C)(C)CO)c([N+](=O)[O-])cc1[N+](=O)[O-]	0	1	0	13	-11	-32	i	2
